# HPGD inh = HPGD (human) dehydrogenase inhibition | purified HPGD, NADH fluorescence kinetic, PGE2 substrate | P15428 | Potency, µM, for inactives: at the highest dose activity change, negative = inhibition, hits mostly inhibitors | 150,000 tested, 4.3% active; active = well fitted inhibition curve with a large enough effect (not every such curve was filed as active); inconclusive = small, poorly fitted or top-dose-only effect, or another doubt; inactive = no such curve, though single readings can be large or run the other way;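 note: top concentration of the series not given in the record; plate controls included wells without enzyme; inactives centre near -10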
# Target sequence (P15428 whole entry, looked up): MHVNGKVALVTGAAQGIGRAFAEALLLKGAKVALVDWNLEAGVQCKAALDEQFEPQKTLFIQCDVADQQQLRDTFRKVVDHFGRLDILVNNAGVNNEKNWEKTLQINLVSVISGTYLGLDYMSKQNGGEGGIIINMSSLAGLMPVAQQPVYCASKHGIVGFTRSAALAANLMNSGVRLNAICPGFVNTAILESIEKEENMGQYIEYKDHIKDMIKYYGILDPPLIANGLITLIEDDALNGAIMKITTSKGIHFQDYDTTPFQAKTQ
#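 NADH formation kinetics: reaction with 30 uM PGE2 and 1 mM NAD+ (final), 20 nM enzyme, Tris-HCl pH 8 with Tween 20, after 15 min compound preincubation at room temperature. Fluorescence change, last versus first of five reads.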
# * hit, by the source's call; ? = inconclusive. % is set by controls: 0 for no effect and ±100 for the full control effect; potency is the fitted concentration of half-maximal effect.
HPGD inh | Compound
-16% | C=CCc1cc(/C=N/NC(=O)CSc2nnc(CCCc3ccc(OC)cc3)o2)cc(OC)c1O
-13% | COCC(=O)Nc1sc2c(c1C(=O)OC)C(C(=O)OC)CC2 (configuration not stated)
-8% | Cc1ccccc1NS(=O)(=O)c1ccc(OCCNS(C)(=O)=O)cc1
-5% | O=C(OCC(=O)N1CCCCCC1)c1n[nH]c(=O)c2ccccc12
-32% | CCOc1ccc2nc(NC(=O)Cn3cnc4c3c(=O)n(C)c(=O)n4C)sc2c1
-12% | Cc1cc(C)nc(SC2c3cccc4cccc(c34)C2NS(=O)(=O)c2ccccc2)n1 (configuration not stated)
-5% | COCCNC(=O)Cn1nc(C(F)(F)F)cc1C
-10% | Cc1nnc(SCC(=O)Nc2ccc(Cl)cn2)n1Cc1ccccc1
-13% | Cc1cccc(N(CC(=O)N2CCCC2)S(=O)(=O)c2ccccc2)c1C
-7% | CCn1c(SCC(=O)c2ccc(CNC(C)=O)o2)nnc1-c1cccs1
-14% | Nc1ccc2oc(=O)c3ccccc3c2c1
-11% | CCOc1ccc(-n2c(SCC(=O)Nc3cc(C)on3)nnc2-c2c[nH]c3ccccc23)cc1
-4% | Cc1cc([N+](=O)[O-])cc2ncccc12
1% | O=C(CSc1nnnn1C1CCCC1)NCc1ccc2c(c1)OCO2
-12% | CCOC(=O)C1=NN(C(=O)Nc2ccc(OC)cc2)C2C(=O)N(c3cccc(C(F)(F)F)c3)C(=O)C12 (configuration not stated)
-21% | CCSc1nc2cc(C(=O)OC)ccc2c(=O)n1CC
-3% | COc1ccccc1Oc1ccc2c(c1)C(=O)N(c1ccc(O)cc1)C2=O
-12% | CC(C)c1nc(C#N)c(NCCCn2ccnc2)o1
-8% | CCC(C)Oc1cccc(OCCCCN2C(=O)NC(C)(C)C2=O)c1 (configuration not stated)
-29% | CC(C)CCN(C)c1ccc(/C=N/n2cnnc2)cc1
-4% | COc1cc2c(cc1OC)C(c1cccc([N+](=O)[O-])c1)N(C(=O)c1ccc(F)cc1)CC2 (configuration not stated)
-14% | CC(=O)Nc1ccc(S(=O)(=O)NCCSCc2c(Cl)cccc2Cl)cc1
-7% | COc1ccc(NC(=S)N2CCC(c3nc4ccccc4[nH]3)CC2)c(OC)c1
-11% | COc1cc(NC(=O)c2cc(CC(C)C)on2)c(OC)cc1Cl
-25% | CCOC(=O)CSC1=C(C#N)C(c2ccc(C)cc2)C2=C(CCCC2=O)N1 (configuration not stated)

# Going on with the list:
HPGD inh | Compound
-18% | COc1cccc(C(=O)NCC(=O)N/N=C/c2ccc(OC(=O)c3cccs3)c(OC)c2)c1
-5% | COc1ccc(Nc2ncnc3ccc(OC)cc23)cc1
-9% | COc1ccc(C2CC(c3ccccc3)=NN2c2ccc(N)cc2)cc1 (configuration not stated)
-29% | N#C/C(=C\c1ccc[nH]1)Sc1nc2ccccc2s1
-26% | c1coc(-c2nn3c(-c4ccco4)nnc3s2)c1
? | Cc1ccc(C)c(-c2nc3ccc(N)cc3[nH]2)c1
-6% | CC(/C=C(\NC(=O)c1ccccc1)C(=O)N=Nc1c(O)[nH]c2ccc(C)cc12)=C\c1ccccc1
-17% | O=C(NCCC(=O)N1CCN(c2ncccn2)CC1)c1ccccc1
-7% | Cc1cc(C(=O)COC(=O)Cn2c(C(F)(F)F)nc3ccccc32)c(C)n1Cc1ccco1
? | CCOC(=O)c1[nH]c2ccc(F)cc2c1NC(=O)c1cc(OC)c(OC)c(OC)c1
-17% | Cc1oc(/N=C/c2cccc3ccccc23)c(C#N)c1C
-12% | CC(C)CN(CC(C)C)S(=O)(=O)N1CCC(C(=O)N2CCc3ccccc3C2)CC1
-5% | CC(C)(C)NC(=O)CSc1nccn1Cc1ccccc1
-7% | COc1cc(/C=C/C(=O)N2CCCCC2=O)cc(OC)c1OC
-1% | CC(=O)NNC(=O)CC(=O)Nc1nc(C23CC4CC(CC(C4)C2)C3)cs1
-14% | CN(C)S(=O)(=O)c1ccc(NC(=O)c2ccccn2)cc1
? | COc1ccc(C/C(C)=N/NC(=S)Nc2ccc(C(C)C)cc2)cc1
-18% | CCNC(=O)c1ccc(-n2nc(C(F)(F)F)c3c2CCCC3)cc1
? | CCN(CC)c1ccc(C(=O)N/N=C(\C)c2ccc(OC)c(OC)c2)cc1
3% | CCOCCCNC(=O)C1CCC(=O)N1CCc1ccccc1 (configuration not stated)
3% | O=C(NCC1CCCO1)C(=O)NCC(c1ccco1)N1CCN(c2ccc(F)cc2)CC1 (configuration not stated)
? | Cc1cccc2c1-c1sc(C(=O)Nc3cccc([N+](=O)[O-])c3C)cc1CO2
-2% | COc1ccccc1N1CCN(C2=CC(=O)CCC2)CC1
-1% | CCOc1ccccc1NS(=O)(=O)c1ccc(OC)c(OC)c1
-4% | COc1ccc(NC(=S)N2C3CCC2CC(NC(=O)NC24CC5CC(CC(C5)C2)C4)C3)c(OC)c1 (configuration not stated)

# Additional structures follow:
HPGD inh | Compound
-2% | COc1ccc([C@@H](Nc2ccccn2)c2cc(C(C)(C)C)cc(C(C)(C)C)c2O)cc1
-11% | COc1cc(NC(=O)COC(=O)c2nc3nc(C)cc(C)n3n2)cc(OC)c1
-7% | C/C(=C\c1ccc(Cl)cc1)C(C)(C)C(=O)O
-2% | COc1cccc2cc(C(=O)C3=C(O)C(=O)N(Cc4ccco4)C3c3cccnc3)oc12 (configuration not stated)
-12% | O=C(c1cccc(Cl)c1)c1nn(-c2ccccc2)c(=O)cc1C(F)(F)F
-1% | CCOC(=O)Cc1nnc(NC(=O)COc2ccc(F)cc2)s1
-27% | CCn1c(-c2ccc([N+](=O)[O-])cc2)n[nH]c1=S
-4% | COC(=O)c1cc2sccc2n1CC(=O)Nc1cc(OC)cc(OC)c1
? | CCOC(=O)CCSc1nc(C)c2cc(C)c(C)cc2n1
-9% | CCOC(=O)NCCc1c(C)nc2c(c(C)nn2C(C)(C)C)c1C
-4% | N#Cc1ccc(C23CC4(C2)[C@H](CN(Cc2ccc(C(F)(F)F)cc2)[C@@H]4c2ccccc2)C3c2ccccc2)cc1 (some centres not stated)
-6% | Cc1cc(NC(=O)Cn2cnc3c2c(=O)n(C)c(=O)n3C)n(-c2ccccc2)n1
-1% | O=C1C2C3C=CC(C2C(=O)N1C1CCCCC1)C1C(=O)N(C2CCCCC2)C(=O)C31 (configuration not stated)
-9% | O=C(NCCCN1CCN(c2ccccc2F)CC1)C1CCC(=O)N1C1CCCCC1 (configuration not stated)
-13% | O=C(CCCO)CCCCCCCCC[C@H]1N[C@H](CO)[C@@H](O)[C@@H]1O
-3% | CCC(=O)Nc1ccc(S(=O)(=O)NCC2CCCO2)cc1 (configuration not stated)
-5% | Cc1ccc(-c2nn(Cc3ccccc3)cc2/C=C/C(=O)O)cc1C
-11% | CCNc1nc(OC)nc(Oc2ccc(=O)n(-c3ccccc3)n2)n1
-10% | Cc1ccc(C)c(NC(=S)NNC(=O)c2csc(C(C)C)c2)c1
? | COc1ccccc1/C=N/NC(=O)c1ccc(Cn2nc([N+](=O)[O-])cc2C)cc1
? | O=C(COC(=O)c1ccccc1NC(=O)c1ccco1)NCC1CCCCC1
0% | CC1(C)CC(=O)C2=C(C1)N(Cc1ccco1)C(=O)C2(NC(=O)C1CCCCC1)C(F)(F)F (configuration not stated)
-11% | Cc1nn(C)c(C)c1/C=N/NC(=O)c1csc2ccccc12
? | Cc1ccc2[nH]c3c(=O)n(CCN4CCNCC4)cnc3c2c1
-7% | CCN(Cc1ccccc1)CC(O)COc1ccccc1 (configuration not stated)

# (listing goes on)
HPGD inh | Compound
-12% | CC1=CC(=C(C#N)c2nc3ccccc3s2)C=C(C)N1c1ccc(F)cc1
? | COc1ccc2c3c(c(=O)oc2c1OCC(N)=O)CCCC3
-11% | CC1(C)SC(=S)N(/N=C/c2ccc(O)cc2)C1N(O)C(=O)Nc1ccc([N+](=O)[O-])cc1 (configuration not stated)
-25% | Cc1no[n+]([O-])c1COc1ccc(/C=C2\NC(=S)NC2=O)cc1
16µM* | CN(C)c1nc(SCCOC(=O)COc2ccc(Cl)cc2Cl)nc(N(C)C)n1
3.5µM* | N#C/C(=C\c1c[nH]c2ccccc12)C(=O)c1ccc(O)c(O)c1
-4% | COc1ccc2c(c1)O[C@@H](c1ccc3c(c1)OCO3)[C@H](OC(=O)NCCc1ccc(OC)c(OC)c1)C2=O
-10% | N#Cc1nc(Cc2ccccc2)oc1N1CCN(c2cccc(Cl)c2)CC1
-2% | c1cncc(-c2nc(NCc3ccco3)c3ccccc3n2)c1
-6% | O=C(Nc1nccs1)c1nc(-c2ccccc2)n(-c2ccccc2)n1
-12% | CC(CCO)Nc1nc2c([nH]1)c(=O)n(C)c(=O)n2C (configuration not stated)
-5% | Cc1ccccc1C(=O)N1CCN(c2nc(N3CCOCC3)nc(N3CCOCC3)n2)CC1
? | Cc1ccc2cc(CCNC(=O)c3ccco3)c(=O)[nH]c2c1C
-2% | O=C(Cn1cc([N+](=O)[O-])cn1)Nc1nc2ccccc2s1
-2% | Cn1nc(-c2ccccc2)c(C(O)c2ccc(Cl)cc2)c1Cl (configuration not stated)
4% | CCC(C)(C(=O)NC1CCCCC1)N(Cc1ccco1)C(=O)c1ccccn1 (configuration not stated)
3% | Cn1cc(S(=O)(=O)N2CCC(Cc3ccccc3)CC2)c(=O)n(C)c1=O
-6% | CCOCCCNC(=O)c1cn(C)c(=O)c2cc(OC)c(OC)cc12
-1% | COC(=O)N/C(C)=C1/NC(=O)c2ccccc2C(c2ccccc2)N1 (configuration not stated)
-1% | CCNc1cccc2c1C(=O)N(C)C2=O
-30% | O=c1oc2cc(O)c(Cl)cc2c2ccccc12
-17% | COc1cc(C)c(CNc2ccc(OC)c(OC)c2)cc1C
? | CCOC(=O)CSC1=C(C#N)C(c2ccco2)C(C(=O)Nc2cccc(C(F)(F)F)c2)=C(C)N1 (configuration not stated)
-15% | COc1ccc(CC(=O)OCC(=O)NC(=O)NC23CC4CC(CC(C4)C2)C3)cc1
-13% | COc1ccc(Cl)cc1-c1nc(SCC(=O)NCCN2C(=O)CSC2=O)n[nH]1

# (cont.)
HPGD inh | Compound
-15% | COc1cc(NC(=O)c2cccc(C)c2)c(Cl)cc1[N+](=O)[O-]
-9% | COc1ccc(C(=O)N(CC2CCCO2)C(C(=O)NC2CCCC2)c2ccc(C)cc2)cc1OC (configuration not stated)
-4% | CC(=O)N(c1ccccc1)c1c(F)c(F)c(F)c(F)c1F
-13% | O=C(COC(=O)c1ccc(F)cc1)Nc1ccccc1N1CCOCC1
? | COc1ccc2nc(Nc3nc(C)c(C(C)=O)s3)sc2c1
18µM* | O=C(O)CCCN1C(=O)/C(=C/c2ccc(-c3nc4ccccc4s3)o2)SC1=S
-13% | CN(C(=S)Nc1ccc(SC(F)F)cc1)c1ccc(O)cc1
-12% | COc1ccc(-c2nnc(SCC(=O)Nc3cc(S(=O)(=O)N4CCCCC4)ccc3Cl)n2N)cc1
? | O=C(CC(=O)c1ccccc1)c1ccccc1
-4% | COc1cc(C(=O)NCC(C)C)c([N+](=O)[O-])cc1OC
2% | CCCS(=O)(=O)N1CCC(C(=O)NCC2CCCO2)CC1 (configuration not stated)
-15% | c1ccc(C2C3=C(CCCC3)Nc3ncnn32)cc1 (configuration not stated)
-13% | O=C(CSc1nncn1-c1cccnc1)N1CCOCC1
-10% | O=C1CCC(c2ccccc2)N1C(=O)c1cccnc1 (configuration not stated)
2% | O=C(COC(=O)c1ccc(S(=O)(=O)NCc2ccco2)cc1)NCC1CCCCC1
-15% | Clc1ccc(-c2nnc3cccc(Cl)n23)c(Cl)c1
-24% | CC(Nc1ccc(Cl)cc1)c1cc(Cl)ccc1O (configuration not stated)
-12% | CCCNCc1cc(Br)ccc1OCC(=O)NCCc1ccccc1
? | CC(C)(C)c1ccc(C(=O)N2CCC(=O)N(C(CO)Cc3ccccc3)CC2)cc1 (configuration not stated)
-8% | O=C(Nc1nccs1)C1CCCN(S(=O)(=O)c2cccnc2)C1 (configuration not stated)
9% | O=C(Nc1cnccn1)C1c2ccccc2Oc2ccccc21
-10% | CCOC(=O)c1sc(NC(=O)CSc2nc(-c3ccco3)cc(C(F)(F)F)n2)c(C(=O)OC)c1C
-7% | O=C(O)c1ccccc1-c1ccccc1C(=O)Nc1ccc2c(c1)[nH]c(=O)c1ccccc12
28µM* | Cc1c(/C=N/NC(=O)c2ccccc2O)c2ccccn2c1C(=O)c1ccc(F)cc1
-25% | Cc1ccsc1-c1nc(-c2ccccc2)c(-c2ccccc2)[nH]1
-15% | CCN(CC)S(=O)(=O)c1ccc2c(c1)nc(CCC(=O)OCC(=O)N1CCc3ccccc31)n2C

# Screening data deposited in PubChem BioAssay by National Center for Advancing Translational Sciences (NCATS).

# These rows are one share of the data; count on the stated rates, not on these rows.
